# High-throughput results from PubChem.
# DUX4 inh: inhibitors of DUX4-driven ZSCAN4 reporter expression, primary screen, 293T cells, Gaussia and Italica luciferase; 293T-iDUX4 ZSCAN4-Gaussia luciferase reporter, 24 h; stronger effect = lower value; activity change, negative = inhibition, % (concentration not given with the values); 37,000 compounds, 0.8% hits;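 active means -10% or lower and over 25 points stronger than a control reporter; inconclusive means -10% or lower with a smaller gap; inactive means above -10%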;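 further: 0% = median of neutral control wells and -100% = median of positive control wells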
# DUX4 inh difference: second read-out of DUX4 inh, no call of its own (marks repeat the call); Gaussia minus Italica difference, %; measured here: selective DUX4 reporter inhibition;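 worked out from the two reporters; negative = selective loss of the DUX4 reporter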
# DUX4 inh control: further read-out of DUX4 inh, marked with its call; activity change, negative = inhibition, %; measured here: Italica tet-on control reporter;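 0 = neutral control and -100 = positive control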
# An asterisk follows results filed as active; ? = inconclusive; nt = not tested or not shown. These rows are one share of the data; the hit share may differ from the screen's.
SMILES,DUX4 inh,DUX4 inh difference,DUX4 inh control
C[C@H]1CN([C@@H](C)CO)C(=O)CCCn2nncc2CO[C@@H]1CN(C)Cc1cccc2c1OCCCO2,1.5,-0.2,1.7
COc1ccc2c3c(n(C)c2c1)[C@H](CO)N(S(C)(=O)=O)CC31CCN(C(=O)CN(C)C)CC1,17.7,14.8,2.9
CN(C)CC(=O)N[C@@H]1CC[C@H](CCNC(=O)C2CCC2)O[C@@H]1CO,-0.8,-2.1,1.3
N#C[C@H]1[C@@H](c2ccccc2C2=CCCC2)[C@H](CO)N1C(=O)C1CCOCC1,7.0,7.6,-0.6
CCS(=O)(=O)NCC[C@@H]1CC[C@H](NS(=O)(=O)c2ccccc2C)[C@H](CO)O1,5.6,11.9,-6.3
N#C[C@@H]1[C@@H](c2ccc(C3=CCCC3)cc2)[C@@H](CO)N1c1nc(-c2ccccc2)cs1,-1.1,2.4,-3.5
C[C@@H]1CN([C@@H](C)CO)S(=O)(=O)c2ccc(-c3ccc(C#N)cc3)cc2O[C@H]1CN(C)Cc1cccc(F)c1,-2.4,-2.7,0.4
CC(=O)N1CC2(C1)[C@H](c1ccc(-c3cccc(F)c3)cc1)[C@H](CO)N2CC1CC1,-6.5,-4.5,-2.0
CN(C)C(=O)[C@H]1[C@H](CO)[C@H]2Cn3c(ccc(C4=CCCCC4)c3=O)[C@@H]1N2C,1.6,5.9,-4.3
COc1ccccc1-c1ccc([C@H]2[C@@H](CO)N(C(=O)NC3CCCCC3)[C@H]2C#N)cc1,-3.3,-6.0,2.8
CC(C)NC(=O)Nc1ccc2c(c1)C(=O)N([C@@H](C)CO)C[C@H](C)[C@H](CN(C)S(=O)(=O)c1ccc(F)cc1)OCCCC[C@H](C)O2,3.1,3.5,-0.5
COc1ccc(CNC(=O)N(C)C[C@@H]2OCc3ccccc3-c3c(n(C)c4ccccc34)C(=O)N([C@@H](C)CO)C[C@H]2C)cc1,-0.9,-3.1,2.2
CC=Cc1ccc2n(c1=O)C[C@H]1[C@H](CO)[C@@H](C(=O)N[C@@H](C)c3ccccc3)[C@@H]2N1Cc1cncnc1 (mixture of isomers),10.8,5.2,5.6
CO[C@@H]1CN(C)C(=O)c2cc(C#N)ccc2OCC[C@H]2CC[C@@H](OC)[C@@H](CN(C)C(=O)[C@H]1C)O2,-0.9,0.9,-1.8
CCCNC(=O)Nc1ccc2c(c1)OC[C@H](C)N(CCC(F)(F)F)C[C@H](C)[C@@H](OC)CN(C)C2=O,-2.3,-0.7,-1.6
COC(=O)C[C@H]1CC[C@@H]2[C@@H](COc3ccc(NC(=O)Nc4cccc(F)c4)cc3C(=O)N2C)O1,1.5,-0.9,2.4
CCC(=O)NC[C@@H]1[C@@H](c2ccc(C3=CCCC3)cc2)[C@@H](CO)N1C(=O)CC,-1.4,0.3,-1.7
C[C@@H]1CCCCO[C@H](CN(C)S(=O)(=O)c2cccs2)[C@H](C)CN([C@H](C)CO)C(=O)c2cc(N(C)C)ccc2O1,-7.4,4.7,-12.1
CC(C)NC(=O)Nc1ccc2c(c1)C(=O)N([C@H](C)CO)C[C@H](C)[C@@H](CN(C)C(=O)C1CCCCC1)OCCCC[C@H](C)O2,-3.2,-1.5,-1.7
C[C@@H]1CN([C@@H](C)CO)C(=O)CCCn2cc(nn2)CO[C@@H]1CN(C)Cc1ccc(Cl)c(Cl)c1,-8.3,-1.0,-7.3
Cn1cnc(S(=O)(=O)N[C@H]2C=C[C@@H](CC(=O)N3CCN(c4ccccc4)CC3)O[C@H]2CO)c1,-4.1,-1.1,-3.0
COCC(=O)N1[C@H](CO)[C@@H]2c3ccccc3N(C(=O)Nc3ccccc3F)C[C@@H]21,1.8,4.6,-2.8
CC(C)C#Cc1ccc([C@@H]2[C@@H](CO)N3C(=O)CN(C(=O)c4ccc5c(c4)OCO5)C[C@H]23)cc1,8.5,12.2,-3.6
CCC(=O)N1[C@H](CO)[C@@H](c2ccc(-c3cccnc3)cc2)[C@@H]1CN(CC)C(C)=O,-3.0,-1.7,-1.4
CN1CCN(C(=O)C[C@@H]2C[C@H]3c4cc(NC(=O)Nc5ccc(C(F)(F)F)cc5)ccc4O[C@H]3[C@@H](CO)O2)CC1,0.5,0.7,-0.1
CCCNC(=O)N1C[C@@H](O)COC[C@@H]2O[C@@H](CC(=O)NCc3ccncn3)CC[C@H]21,8.5,3.3,5.2
O=C(O)C[C@H]1C[C@@H]2c3cc(NC(=O)C4CCC4)ccc3O[C@@H]2[C@@H](CO)O1,2.6,-3.4,6.0
CS(=O)(=O)N1CC2(C1)[C@@H](c1ccccc1)[C@@H](CO)N2Cc1ccccn1,?,nt,nt
C[C@@H]1CN([C@@H](C)CO)S(=O)(=O)c2ccc(-c3cncnc3)cc2O[C@@H]1CN(C)C(=O)NC1CCCC1,-1.8,-9.2,7.4
C[C@H](O)C#Cc1ccc([C@H]2[C@@H](CO)N3CCCCN(S(=O)(=O)c4ccccc4)C[C@H]23)cc1,?,nt,nt
CCCNC(=O)[C@@H]1[C@@H](CO)[C@@H]2Cn3c(ccc(C4=CCCC4)c3=O)[C@H]1N2C(=O)CC,2.4,0.4,1.9
COc1ccccc1CN1[C@H](CO)[C@H]2c3ccccc3N(C(=O)c3ccc(F)cc3)C[C@H]21,-2.1,1.6,-3.7
C[C@@H]1CN([C@@H](C)CO)C(=O)c2ccccc2-c2ccccc2CO[C@H]1CN(C)C(=O)C1CC1,-5.4,-1.6,-3.8
CC=Cc1ccc2n(c1=O)C[C@@H]1[C@@H](CO)[C@H](C(=O)NC3CCCC3)N(CCC)[C@H]21 (mixture of isomers),-1.6,-4.9,3.3
CCCC(=O)Nc1ccc2c(c1)C(=O)N(C)[C@@H]1CC[C@@H](CC(=O)OC)O[C@H]1CO2,-2.2,-2.7,0.5
C[C@H](CO)N1C[C@H](C)[C@H](CN(C)S(=O)(=O)c2ccc(Cl)cc2)OCc2ccccc2-c2ccccc2C1=O,?,nt,nt
Cc1ccccc1S(=O)(=O)N1CCCCN2[C@H](CO)[C@H](c3ccc(-c4cccc(F)c4)cc3)[C@H]2C1,?,nt,nt
CCN(C[C@@H]1[C@@H](c2ccc(-c3ccccc3)cc2)[C@@H](CO)N1CC1CC1)C(C)=O,0.3,-3.0,3.3
COCCN(C[C@H]1[C@@H](c2ccccc2)[C@H](CO)N1C(C)=O)C(=O)c1ccncc1,-3.6,-2.5,-1.1
COc1ccc(C#Cc2ccc([C@H]3[C@H](CO)N4CCCCN(S(=O)(=O)c5cn(C)cn5)C[C@@H]34)cc2)cc1,1.4,-9.6,11.0
C/C=C/c1ccc([C@@H]2[C@H](CO)N(C(C)=O)[C@H]2CN(C(C)=O)C2CCCC2)cc1,-0.4,-2.0,1.7
CC(=O)N1[C@@H]2c3ccc(C4=CCCC4)c(=O)n3C[C@H]1[C@H](CO)[C@H]2C(=O)N[C@H](C)c1ccccc1,-4.5,0.1,-4.6
COc1ccccc1C#Cc1ccc([C@H]2[C@H](C#N)N(C(=O)C3CC3)[C@H]2CO)cc1,-6.2,-7.9,1.7
CC(C)CC#Cc1ccc2c(c1)O[C@@H](CN(C)Cc1cncnc1)[C@H](C)CN([C@H](C)CO)S2(=O)=O,2.2,-0.3,2.5
C/C=C/c1ccc2c(c1)O[C@@H](CN(C)Cc1ccccc1F)[C@@H](C)CN([C@@H](C)CO)S2(=O)=O,4.8,-1.0,5.9

# 10 consecutive records already listed:
SMILES,DUX4 inh,DUX4 inh difference,DUX4 inh control
CCCNC(=O)[C@@H]1[C@@H](CO)[C@@H]2Cn3c(ccc(C4=CCCC4)c3=O)[C@H]1N2C(=O)CC,2.4,0.4,1.9
COc1ccccc1CN1[C@H](CO)[C@H]2c3ccccc3N(C(=O)c3ccc(F)cc3)C[C@H]21,-2.1,1.6,-3.7
C[C@@H]1CN([C@@H](C)CO)C(=O)c2ccccc2-c2ccccc2CO[C@H]1CN(C)C(=O)C1CC1,-5.4,-1.6,-3.8
CC=Cc1ccc2n(c1=O)C[C@@H]1[C@@H](CO)[C@H](C(=O)NC3CCCC3)N(CCC)[C@H]21 (mixture of isomers),-1.6,-4.9,3.3
CCCC(=O)Nc1ccc2c(c1)C(=O)N(C)[C@@H]1CC[C@@H](CC(=O)OC)O[C@H]1CO2,-2.2,-2.7,0.5
C[C@H](CO)N1C[C@H](C)[C@H](CN(C)S(=O)(=O)c2ccc(Cl)cc2)OCc2ccccc2-c2ccccc2C1=O,?,nt,nt
Cc1ccccc1S(=O)(=O)N1CCCCN2[C@H](CO)[C@H](c3ccc(-c4cccc(F)c4)cc3)[C@H]2C1,?,nt,nt
CCN(C[C@@H]1[C@@H](c2ccc(-c3ccccc3)cc2)[C@@H](CO)N1CC1CC1)C(C)=O,0.3,-3.0,3.3
COCCN(C[C@H]1[C@@H](c2ccccc2)[C@H](CO)N1C(C)=O)C(=O)c1ccncc1,-3.6,-2.5,-1.1
COc1ccc(C#Cc2ccc([C@H]3[C@H](CO)N4CCCCN(S(=O)(=O)c5cn(C)cn5)C[C@@H]34)cc2)cc1,1.4,-9.6,11.0

# Additional results
SMILES,DUX4 inh,DUX4 inh difference,DUX4 inh control
COCC(=O)N1CCCCN2[C@H](CO)[C@@H](c3ccc(-c4cccc(C)c4)cc3)[C@@H]2C1,21.2,-3.8,25.0
CCS(=O)(=O)N1CC2(CN(C(=O)c3ccc(F)cc3)[C@@H](CO)c3[nH]c4cc(OC)ccc4c32)C1,15.8,12.4,3.4
O=C(C[C@H]1C[C@H]2c3cc(NC(=O)c4ccc5c(c4)OCO5)ccc3O[C@H]2[C@H](CO)O1)NCCN1CCCCC1,7.7,9.6,-1.9
C[C@@H]1CN([C@H](C)CO)S(=O)(=O)c2ccc(C#Cc3ccccc3F)cc2O[C@@H]1CN(C)C(=O)Cc1cccnc1,0.7,1.5,-0.9
C/C=C/c1ccc(C2[C@@H]3CN(S(=O)(=O)c4ccccc4F)C[C@H]2N3)cc1 (stereo not given in full),-6.0,1.5,-7.4
COc1ccc2c3c(n(C)c2c1)[C@H](CO)N(C(=O)Nc1ccc(F)cc1)CC31CCN(C)CC1,?,nt,nt
CCC(=O)N1CC[C@@H]2[C@H]1c1cc(-c3ccc(OC)cc3)ccc1N[C@@H]2CO,-9.6,10.7,-20.3
CCCNC(=O)N1C[C@H]2[C@@H](c3ccccc31)[C@@H](CO)N2Cc1ccccc1F,-1.2,-2.3,1.1
O=C(C[C@@H]1CC[C@@H]2[C@H](COC[C@@H](O)CN2Cc2ccncc2)O1)NCc1ccccc1Cl,5.1,2.0,3.1
CN1CCN(C(=O)C[C@@H]2CC[C@@H]3[C@@H](COc4ccc(NC(=O)c5cccs5)cc4C(=O)N3C)O2)CC1,3.7,1.1,2.6
O=C(C[C@H]1CC[C@@H]2[C@H](COC[C@H](O)CN2Cc2ccc3c(c2)OCO3)O1)N1CCCCC1,-2.3,-6.4,4.1
CCNC(=O)[C@@H]1[C@@H](CO)[C@@H]2Cn3c(ccc(-c4ccc(F)cc4)c3=O)[C@@H]2N1Cc1ccccc1F,0.0,4.8,-4.8
OC[C@@H]1[C@H](c2ccc(-c3ccccc3F)cc2)[C@@H]2CN(Cc3cccnc3)CCCCN12,?,nt,nt
COc1ccc(C#Cc2cccc(-c3nc(C(=O)N4CCN(Cc5ccccc5)CC4)cc4c3[C@H](CCO)N(S(=O)C(C)(C)C)C4)c2)cc1OC (stereo not given in full),0.8,0.5,0.2
COc1ccc2c3c(n(C)c2c1)[C@@H](CO)N(C(=O)c1cccc(F)c1)CC31CCN(C(=O)c2cccc(F)c2)CC1,?,nt,nt
O=C(NC1CCCCC1)N1CC2(C1)[C@H](c1ccccc1)[C@H](CO)N2CC1CCCC1,-26.1*,-26.2*,0.1*
CN1c2ccc(-c3ccc(F)cc3)cc2[C@H]2[C@H](CCN2C(=O)Nc2cc(F)ccc2F)[C@H]1CO,?,nt,nt
CCN1[C@@H]2c3ccc(-c4cccnc4)c(=O)n3C[C@@H]2[C@@H](CO)[C@@H]1C(=O)NC1CCCCC1,-3.9,-1.0,-3.0
N#C[C@H]1[C@@H](c2ccccc2-c2cccc(F)c2)[C@H](CO)N1C(=O)C1CCC1,1.0,2.7,-1.7
COc1ccc2c3c([nH]c2c1)[C@H](CO)N(C(=O)NC(C)C)CC31CCN(C(=O)c2ccccn2)CC1,-3.5,-10.9,7.4
O=C([C@H]1[C@H](CO)[C@H]2Cn3c(cccc3=O)[C@H]2N1CC1CC1)N1CCc2ccccc2C1,8.5,12.7,-4.2
O=C(C[C@H]1CC[C@H]2NC[C@H](O)COC[C@@H]2O1)NCc1ccc2c(c1)OCO2,-5.1,-5.0,-0.1
CCCC#Cc1ccc([C@H]2[C@@H](CO)N3CCCCN(Cc4cncnc4)C[C@@H]23)cc1,7.1,4.7,2.4
O=S(=O)(c1ccccc1)N1CC[C@@H]2[C@@H](CO)Nc3ccc(Br)cc3[C@@H]21,18.6,-1.1,19.7
CNC[C@H]1Oc2ncc(C#Cc3ccccc3F)cc2C(=O)N([C@@H](C)CO)C[C@H]1C,1.3,0.3,1.0
CCCNC(=O)N1[C@H](CO)[C@H]2c3ccccc3N(C)C[C@H]21,-1.1,-1.4,0.3
O=C(CN1CCOCC1)NCC[C@H]1CC[C@@H](NC(=O)c2ccc3c(c2)OCO3)[C@H](CO)O1,-2.6,-5.0,2.4
CO[C@@H](CN(C)S(=O)(=O)c1cccc(Cl)c1)[C@@H](C)CN(C(=O)Nc1ccccc1F)[C@@H](C)CO,2.4,5.7,-3.4
C[C@@H]1CN([C@H](C)CO)C(=O)c2cc(NC(=O)Nc3ccc(C(F)(F)F)cc3)ccc2O[C@@H](C)CCCCO[C@@H]1CN(C)S(=O)(=O)c1cn(C)cn1,1.5,-2.4,3.9
CCC(=O)N1CC2(C1)[C@H](c1ccccc1)[C@@H](CO)N2C(=O)c1ccccc1,4.8,4.4,0.4
C[C@@H]1CN([C@@H](C)CO)C(=O)c2c(c3ccccc3n2C)-c2ccccc2CO[C@H]1CN(C)C(=O)Cc1ccccc1,?,nt,nt
